Screening results (PubChem)
Chronic BCR inh: qHTS Assay to Find Inhibitors of Chronic Active B-Cell Receptor Signaling | ABC-DLBCL IkBa-CBG/CBR reporter, luminescence ratio, 4 h | 0.05% of 340,000 active | Potency, µM (titrated, usually from 46.1 µM), inactives show top-dose ratio change, negative = lower green/red ratio, actives largely listed as inhibitors; active = well fitted inhibition curve with a large enough effect in the signal ratio, with a control signal flat, not every such curve was filed as active; inconclusive = small, poorly fitted or top-dose-only effect, or effect the other way, or a change in a side signal; the % refers to the signal ratio;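 also: potency is read from the fitted curve at half-maximal effect; plate controls were basal doxycycline-induced cells for no effect and cells given 10 µM MG132 for full effect; MG132 reads +100%, hits lower the ratio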
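TMD8 human ABC-DLBCL cells with doxycycline-inducible IκBα–green luciferase fusion and unfused red luciferase, in 0.5% FBS medium; compounds up to 46 uM, 4 h at 37C. Green/red luminescence ratio, filter-overlap corrected, fitted to concentration-response curves.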
Giardia kill: Small Molecules that selectively kill Giardia lamblia: qHTS; 0.15% of 340,000 active; activity change, % at 7.66 µM, hits read low; Giardia lamblia trophozoite viability; AID 540267, 2011; in the data active = activity change below about -80%; inconclusive = between about -30% and that limit;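 also: parasites exposed to compound for two days anaerobically before the ATP read; % is scaled to controls: 0 for no effect and ±100 for the full control effect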
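Killing of trophozoites was scored by loss of ATP luminescence after a 48 hrs anaerobic exposure to compounds at 37 deg C, using 100 cells per well.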
GALK inhibitor: qHTS Assay for Inhibitors of Human Galactokinase (GALK). 0.007% of 270,000 active. Potency, µM (highest dose often 57.5 µM), without a hit: at the top dose activity change, negative = inhibition, hits mostly inhibitors. Purified GALK, Kinase-Glo residual ATP luminescence; also: potency is read from the fitted curve at half-maximal effect; % is scaled to controls: 0 for no effect and ±100 for the full control effect
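Compounds were pin-transferred into ATP buffer (35 uM final), then GALK plus galactose (5 nM, 100 uM final) was added. After 1 h at room temperature, Kinase-Glo Plus was added and luminescence read after 10 min.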
TSG101-PTAP inh: qHTS Assay for Iinhibitors of HIV-1 Budding by Blocking the Interaction of PTAP/TSG101; Tumor susceptibility gene 101 protein (Homo sapiens), Q99816; Fluorescence polarization, FITC-PTAP peptide / Tsg101 binding; Potency, µM (doses to about 115 µM), for the others: at the highest dose activity change, negative = inhibition, usual class: inhibitors; 340,000 tested, under 10 active; AID 493005, 2010; active = well fitted inhibition curve with a large enough effect in the main read-out, with a control signal flat, not every such curve was filed as active; inconclusive = small, poorly fitted or top-dose-only effect, or effect the other way, or a change in a side signal; inactive = no such curve, though single readings can be large or run the other way; also: potency is read from the fitted curve at half-maximal effect; % of control where 0% means no effect
Target sequence (Q99816 whole entry, looked up): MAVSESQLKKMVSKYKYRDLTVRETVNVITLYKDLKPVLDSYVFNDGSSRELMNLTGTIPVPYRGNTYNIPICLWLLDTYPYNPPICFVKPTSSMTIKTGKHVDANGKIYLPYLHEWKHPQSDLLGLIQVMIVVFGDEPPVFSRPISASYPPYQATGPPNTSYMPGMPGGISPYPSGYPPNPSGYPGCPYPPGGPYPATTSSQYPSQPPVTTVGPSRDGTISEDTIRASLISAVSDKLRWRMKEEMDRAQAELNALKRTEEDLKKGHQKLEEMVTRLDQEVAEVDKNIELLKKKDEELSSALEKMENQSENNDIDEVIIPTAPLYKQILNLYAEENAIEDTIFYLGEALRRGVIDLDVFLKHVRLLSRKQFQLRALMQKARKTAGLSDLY
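Steps: Tsg101 binding domain dispensed (10 uM final), compounds pinned in DMSO, FITC-labeled PTAP-motif peptide added (50 nM final); after 20 min binding at room temperature, polarization measured.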
FBPA coupling cs: qHTS Assay for Inhibitors of Fructose-1,6-bisphosphate Aldolase from Giardia Lamblia: Coupling assay counterscreen; coupling enzyme system counterscreen, AmpLite Red fluorescence; activity change, negative = inhibition, % at 58.2 µM, hits read low; 0.67% of 290,000 active; AID 2472, 2010; in the data active = activity change below about -30%; also: % is scaled to controls: 0 for no effect and ±100 for the full control effect
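Counterscreen lacking aldolase: glyceraldehyde-3-phosphate coupling-enzyme reagent preincubated 10 min at RT with compound (at 57.5 uM final), then substrate/coupling system with AmpLite Red added; fluorescence read at 525/598 nm after 20 min RT.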
Integrin act MD: qHTS for Activators of Integrin-Mediated Alleviation for Muscular Dystrophy. AID 624291, 2012. alpha7betagal myoblasts, beta-gal FDG fluorescence, 48 h. Potency, µM (highest dose often 38.3 µM), without a hit: at the top dose activation, most hits filed as activators. 0.064% of 350,000 active;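 also: potency is read from the fitted curve at half-maximal effect; 100% = response of the positive control SU9516; nearly all actives have a fitted effect of over 60% in size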
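Alpha7betagal+/- myoblasts (passage 13) were plated 16-24 hr, then exposed to compounds (1:260 dilution of DMSO stock) for 48 hours at 37C. After MPER lysis, β-galactosidase reporter activity was read as FDG fluorescence (ex 480/em 540) after 30 minutes.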
Tb PFK inh: qHTS Assay to Find Inhibitors of T. brucei phosphofructokinase; Potency, µM (highest dose often 57.5 µM), for the others: at the highest dose activity, negative = inhibition, usual class: inhibitors; T. brucei PFK, ADP-Glo luminescence; 0.17% of 330,000 active; AID 485367, 2010; ATP-dependent 6-phosphofructokinase (Trypanosoma brucei brucei), O15648;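 also: potency is read from the fitted curve at half-maximal effect; 0% = uninhibited 1x PFK enzyme wells and -100% = no-enzyme wells; nearly all actives have a fitted effect of over 60% in size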
Target sequence (O15648 whole entry, looked up): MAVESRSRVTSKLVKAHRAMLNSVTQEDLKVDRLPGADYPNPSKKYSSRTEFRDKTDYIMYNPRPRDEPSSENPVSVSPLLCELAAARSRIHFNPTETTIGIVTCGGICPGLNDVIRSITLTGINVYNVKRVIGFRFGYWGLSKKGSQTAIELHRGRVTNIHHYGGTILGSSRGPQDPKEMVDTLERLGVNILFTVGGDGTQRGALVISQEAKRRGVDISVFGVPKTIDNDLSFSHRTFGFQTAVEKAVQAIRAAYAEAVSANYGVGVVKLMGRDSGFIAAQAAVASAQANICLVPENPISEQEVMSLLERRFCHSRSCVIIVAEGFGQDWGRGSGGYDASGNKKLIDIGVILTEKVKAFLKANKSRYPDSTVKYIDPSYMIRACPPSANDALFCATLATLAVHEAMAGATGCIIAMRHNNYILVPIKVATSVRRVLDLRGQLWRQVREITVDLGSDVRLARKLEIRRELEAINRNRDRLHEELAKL
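1.25 nM PFK with 0.5 mM F6P and 0.1 mM ATP in 0.1 M TEA pH 8.0, 5 mM MgCl2, incubated 45 min at room temperature; ADP measured by ADP-Glo luminescence; compounds titrated up to 57 uM.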
Starred values were filed as active, the others as inactive; u = inconclusive; x = not tested or not shown; & = joins results of further samples; ! = not confirmed by another sample; [ ] = remark or other dose. Unless noted, calls follow the shape of the dose curve; as a rule, active = well fitted curve in the direction sought with a large enough effect; inconclusive = small, poorly fitted or top-dose-only effect, or another doubt; inactive = no such curve, though single readings can be large; an effect the other way counts as inactive or inconclusive.

No.	molecule	Chronic BCR inh	Giardia kill	GALK inhibitor	TSG101-PTAP inh
1	CC(C)OC(=O)C1C(=O)NC2(C)CC1c1ccccc1O2 (stereo not given)	3.5%	8.2	1.8%	-8.8%
2	Cc1cc(C=C2C(=O)NC(=S)NC2=O)c(C)n1-c1ccc2c(c1)OCO2	-7.0%	15.9	-5.8%	-1.4%
3	C=Cn1ccnc1P(=S)(c1ccc(Cl)cc1)c1nccn1C=C	-4.6%	9.2	-0.2%	-6.1%
4	C[C@]12CC[C@H](O)C[C@@H]1CC[C@H]1[C@H]2CC[C@]2(C)C(=O)CC[C@@H]12	x	x	x	x
5	CCC(=O)OC(Cc1ccccc1)(c1ccccc1)[C@H](C)CN(C)C (stereo not given in full)	4.0%	1.2	x	-0.3%
6	O=[N+]([O-])c1ccc(N2CCNCC2)cc1N1CCCCCC1	u	3.2	4.6%	-0.2%
7	COc1ccccc1N1CCN(CCc2ccccc2)CC1	1.1%	2.4	0.2%	-1.6%
8	NCCc1c[nH]c2ccc(O)cc12	0.1%	7.3	x	-5.0%
9	COc1cc2c(c(OC)c1OC)-c1ccc(OC)c(=O)cc1C(NC(C)=O)CC2 (stereo not given)	u	-10.7	x	-6.5%
10	CN(C)[C@@H]1C(=O)C(C(N)=O)=C(O)[C@@]2(O)C(=O)C3=C(O)c4c(O)cccc4[C@@](C)(O)C3C[C@@H]12 (stereo not given in full)	0.6%	u	x	1.9%

No.	FBPA coupling cs	Integrin act MD	Tb PFK inh
1	0.9	-8.6%	3.3%
2	-0.6	-58.2%[inhibitor]	0.3%
3	-0.1	-21.0%	0.2%
4	13.3&-2.6&8.8	x	x
5	x	x	1.2%
6	-0.3	-32.7%	-3.9%
7	1.2	-4.4%	0.5%
8	-40.6*!	x	-6.5%
9	-7.3&-29.3	-43.1%	-1.6%
10	x	x	-3.0%

Next section
No.	molecule	Chronic BCR inh	Giardia kill	GALK inhibitor	TSG101-PTAP inh
11	c1ccc2c(c1)CSc1ccccc1C2C1=NCCN1 (stereo not given)	5.0%	15.8	2.1%	0.2%
12	CN(C)CC/C=C1\c2ccccc2COc2ccccc21	u	-7.9	-1.5%	3.7%
13	COc1ccc2c(c1)CC1(CN2C)C(=O)NC(=O)N(c2ccc(C)cc2)C1=O (stereo not given)	u	10.8	-4.7%	-1.6%
14	COc1ccc2c(c1OC)C(=O)O[C@H]2[C@H]1c2cc3c(cc2CCN1C)OCO3	x	x	x	x
15	CCC(C)NC(=O)c1c(N)n(CCCOC)c2nc3ccccc3nc12 (stereo not given)	u	14.3	-22.6%	-5.0%
16	[N-]=[N+]=CC(=O)OC[C@H](N)C(=O)O	-7.7%	-16.6	-0.9%	-3.0%
17	O=C(c1n[nH]c(=O)c2ccccc12)N1CCC2(CC1)OCCO2	-2.2%	-8.7	-0.1%	2.1%
18	CN1C[C@H](CNC(=O)OCc2ccccc2)C[C@@H]2c3cccc4c3c(cn4C)C[C@H]21	u	39.1[activator]	0.8%	-7.8%
19	COC(=O)[C@H]1C[C@H]2CC[C@H](O)C[C@H]2N1CC1CC1	x	x	x	x
20	O=C(c1ccccc1F)c1cn(CC(=O)N2CCOCC2)c2ccccc12	-0.1%	4.9	-2.7%	-0.1%

No.	FBPA coupling cs	Integrin act MD	Tb PFK inh
11	0.6	-18.6%	0.3%
12	-0.7&-3.5&5.0	x	0.3%
13	-15.4	-5.8%	2.0%
14	2.3	x	x
15	-34.2*	-17.8%	-9.3%
16	-2.0	x	0.9%
17	-2.9	19.5%	-0.1%
18	-9.1&0.8&1.6	x	5.0%
19	0.3	x	x
20	-1.0	-7.8%	1.1%

Sorted by formula weight (high to low): 11 of the compounds above.
No.	molecule	Chronic BCR inh	Giardia kill	GALK inhibitor	TSG101-PTAP inh
10	CN(C)[C@@H]1C(=O)C(C(N)=O)=C(O)[C@@]2(O)C(=O)C3=C(O)c4c(O)cccc4[C@@](C)(O)C3C[C@@H]12 (stereo not given in full)	0.6%	u	x	1.9%
14	COc1ccc2c(c1OC)C(=O)O[C@H]2[C@H]1c2cc3c(cc2CCN1C)OCO3	x	x	x	x
13	COc1ccc2c(c1)CC1(CN2C)C(=O)NC(=O)N(c2ccc(C)cc2)C1=O (stereo not given)	u	10.8	-4.7%	-1.6%
20	O=C(c1ccccc1F)c1cn(CC(=O)N2CCOCC2)c2ccccc12	-0.1%	4.9	-2.7%	-0.1%
15	CCC(C)NC(=O)c1c(N)n(CCCOC)c2nc3ccccc3nc12 (stereo not given)	u	14.3	-22.6%	-5.0%
17	O=C(c1n[nH]c(=O)c2ccccc12)N1CCC2(CC1)OCCO2	-2.2%	-8.7	-0.1%	2.1%
7	COc1ccccc1N1CCN(CCc2ccccc2)CC1	1.1%	2.4	0.2%	-1.6%
11	c1ccc2c(c1)CSc1ccccc1C2C1=NCCN1 (stereo not given)	5.0%	15.8	2.1%	0.2%
12	CN(C)CC/C=C1\c2ccccc2COc2ccccc21	u	-7.9	-1.5%	3.7%
8	NCCc1c[nH]c2ccc(O)cc12	0.1%	7.3	x	-5.0%
16	[N-]=[N+]=CC(=O)OC[C@H](N)C(=O)O	-7.7%	-16.6	-0.9%	-3.0%

No.	FBPA coupling cs	Integrin act MD	Tb PFK inh
10	x	x	-3.0%
14	2.3	x	x
13	-15.4	-5.8%	2.0%
20	-1.0	-7.8%	1.1%
15	-34.2*	-17.8%	-9.3%
17	-2.9	19.5%	-0.1%
7	1.2	-4.4%	0.5%
11	0.6	-18.6%	0.3%
12	-0.7&-3.5&5.0	x	0.3%
8	-40.6*!	x	-6.5%
16	-2.0	x	0.9%

Fetched by compound from above, two records:
No.	molecule	Chronic BCR inh	Giardia kill	GALK inhibitor	TSG101-PTAP inh
18	CN1C[C@H](CNC(=O)OCc2ccccc2)C[C@@H]2c3cccc4c3c(cn4C)C[C@H]21	u	39.1[activator]	0.8%	-7.8%
19	COC(=O)[C@H]1C[C@H]2CC[C@H](O)C[C@H]2N1CC1CC1	x	x	x	x

No.	FBPA coupling cs	Integrin act MD	Tb PFK inh
18	-9.1&0.8&1.6	x	5.0%
19	0.3	x	x

Further entries:
No.	molecule	Chronic BCR inh	Giardia kill	GALK inhibitor	TSG101-PTAP inh
21	CC(=O)[C@@H]1CC[C@@H]2[C@@H]3CCC4=CC(=O)CC[C@@]4(C)[C@H]3CC[C@]21C	x	x	x	x
22	COc1ccc2c(c1OC)C(=O)O[C@@H]2[C@H]1c2cc3c(cc2CCN1C)OCO3	-6.5%	2.9	x	-2.9%
23	CC(C)(C)NCC(O)c1cc(Cl)c(N)c(Cl)c1 (stereo not given)	u	-23.7	-1.3%	3.5%
24	C[C@]12CCC3=C4CCC(=O)C=C4CC[C@H]3C1CC[C@@H]2O (stereo not given in full)	0.0%	9.3	x	0.2%
25	CN1CC[C@]23c4c5ccc(O)c4OC2C(O)C=CC3[C@H]1C5 (stereo not given in full)	-0.2%	65.7[activator]	x	1.2%
26	CN1C2C=C(N(C(=O)c3ccc(Cl)cc3)c3ccccc3)CC1CC2 (stereo not given)	0.4%	-3.0	4.2%	0.2%
27	Oc1ccc2ccccc2c1CN1CC=C(c2ccccc2)CC1	1.8%	-7.1	14.5%	1.2%

No.	FBPA coupling cs	Integrin act MD	Tb PFK inh
21	4.7	x	x
22	x	x	0.4%
23	5.3&1.4&-0.6	x	-4.6%
24	1.8	-7.5%	-4.6%
25	x	x	3.2%
26	2.7	-17.5%	1.4%
27	-2.6	-20.9%	0.2%

These rows are one share of the data (hit frequency here may not be typical).
